STK33 inh: inhibitors of human STK33 kinase. AID 2661. purified STK33, MBP phosphorylation, ADP-Glo luminescence. actives 0.073% (n = 320,000). inhibition, % at 10 µM. Q9BYT3;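 active = inhibition at or above 25%, using the most active replicate where run in duplicate; inactive = inhibition below 25%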
Target sequence (Q9BYT3 whole entry, looked up): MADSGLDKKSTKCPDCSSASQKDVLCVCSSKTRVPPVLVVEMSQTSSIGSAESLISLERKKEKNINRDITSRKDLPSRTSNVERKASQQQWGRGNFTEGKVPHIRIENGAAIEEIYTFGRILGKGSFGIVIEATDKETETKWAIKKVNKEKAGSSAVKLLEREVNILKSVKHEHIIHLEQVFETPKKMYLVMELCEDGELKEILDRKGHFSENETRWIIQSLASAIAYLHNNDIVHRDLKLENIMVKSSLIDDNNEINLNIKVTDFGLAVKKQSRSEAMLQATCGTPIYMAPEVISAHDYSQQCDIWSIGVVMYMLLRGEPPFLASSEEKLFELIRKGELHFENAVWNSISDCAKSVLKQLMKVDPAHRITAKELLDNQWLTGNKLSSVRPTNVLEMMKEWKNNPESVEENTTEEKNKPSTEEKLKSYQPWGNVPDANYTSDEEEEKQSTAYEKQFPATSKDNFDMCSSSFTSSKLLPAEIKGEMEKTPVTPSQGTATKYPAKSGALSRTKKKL
Active calls of the source: *. Not all compounds are listed; most or all hits stand in other tables.

| smiles | STK33 inh |
| --- | --- |
| CC(C)(C#CCN1CCCCC1)OCCOC(c1ccccc1)c1ccccc1 | -1.2 |
| O=C(Cc1ccccc1)NCC(=O)N1CCN(c2ccccc2F)CC1 | -1.2 |
| COCCn1c(=O)[nH]c2cc(C(=O)N3CCN(c4ccc(OC)cc4)CC3)ccc2c1=O | 0.5 |
| NC(=NCCc1c[nH]c2ccccc12)NS(=O)(=O)c1cc(F)ccc1F | 0.7 |
| O=C(NC1CCCCC1)c1ccc(CS(=O)(=O)c2ccc(Cl)cc2)o1 | -5.2 |
| Cc1ccc(C(=O)N(Cc2nc(-c3ccc(C)cc3)no2)C(C)C)cc1 | -0.1 |
| CCOCCCNC(=O)C1CCC(CNS(=O)(=O)c2ccc(F)cc2)CC1 (stereo not drawn) | -1.2 |
| CCC(C)NC(=O)c1cc(Sc2nnc(C)s2)nc2ccccc12 (stereo not drawn) | -1.8 |
| C=CCNc1nc(Nc2ccc(Cl)cc2)nc(OC)n1 | 1.8 |
| Clc1cccc(-c2nc(NCC3CCCO3)c3ccccc3n2)c1 (stereo not drawn) | 0.5 |
| CC(=O)c1cccc(NC(=O)c2ccc3c(Cl)c4c(nc3c2)CCCC4)c1 | 0.1 |
| COc1ccc(CN(C(=O)c2nsc(Cl)c2Cl)C(C(=O)NC2CCCC2)c2ccc(OC)cc2)cc1 (stereo not drawn) | -0.9 |
| CCOC(=O)Cn1c(C(C)=O)nc2ccccc21 | -0.2 |
| CC(c1nnc(SCC(=O)Nc2cc([N+](=O)[O-])ccc2F)n1Cc1ccccc1)N(C)C (stereo not drawn) | -0.4 |
| O=C(C[n+]1ccccc1)Nc1nc2ccccc2s1 | -2.9 |
| O=C(COC(=O)CCCNC(=O)c1ccc(Cl)cc1)NCc1ccccc1Cl | 1.0 |
| COC(=O)c1cc(Br)c(=O)n(CC(C)C)c1 | 0.1 |
| CCn1cc(C(=O)NCCCN2CCN(C)CC2)c(=O)c2cc(S(=O)(=O)N3CCc4ccccc4C3)ccc21 | -1.0 |
| COc1ccc2cc(C(=O)N3CCN(Cc4ccc5c(c4)OCO5)CC3)[nH]c2c1 | -1.1 |
| COc1ccc2c(c1OC)C(=O)N1C2SC[C@H]1C(=O)NC1CCCC1 (stereo partly drawn) | 0.3 |
| O=C(O)c1cccc(O)c1O | -1.7 |
| CC(C)CNC(=S)N1CCN(C)CC1 | 0.6 |
| COCCN(CCOC)C(=O)COC(=O)c1ccc(Cl)c(S(=O)(=O)N(C)c2ccccc2)c1 | -1.4 |
| CN1CCN(C(=O)c2ccccc2NC(=O)c2ccccc2Br)CC1 | -0.9 |
| CCCCOC(=O)C(C#N)c1nc2ccccc2nc1N1CCN(Cc2ccc3c(c2)OCO3)CC1 (stereo not drawn) | -1.1 |
| c1ccc(-c2nc3cc4ccccc4cc3[nH]2)nc1 | 5.6 |
| COc1ccc(C(CNC(=O)COc2ccccc2-c2ccccc2)N2CCOCC2)cc1 (stereo not drawn) | -1.5 |
| C=CCC(CC=C)(NC(=O)c1ccccc1)c1ccccc1 | 0.6 |
| CCOc1ccc(C(=O)N(c2ccccn2)C2CCCCC2)cc1 | 0.5 |
| COc1ccc(C(=O)/C=C/Nc2ccc(S(=O)(=O)Nc3onc(C)c3C)cc2)cc1 | 0.5 |
| O=S(=O)(c1ccc(N2CCOCC2)c(Cl)c1)N1CCOCC1 | -1.8 |
| COc1cccc(C(=O)NCCS(=O)(=O)NCc2ccccn2)c1 | -0.6 |
| COc1ccc(C(=S)N2CCN(c3ccccc3Cl)CC2)cc1OC | -0.3 |
| O=S(=O)(c1ccccc1)c1nc(-c2ccco2)oc1NCc1ccco1 | 0.0 |
| COc1cccc(CNS(=O)(=O)c2ccc(N3CCCC3=O)cc2)c1 | 3.0 |
| CCOC(=O)N1CCC2(CC1)C(C#N)=C(N)Oc1n[nH]c(C)c12 | 1.2 |

Exported with values ahead of the structure: 6 of the compounds above.
STK33 inh	molecule
-0.3	COc1ccc(C(=S)N2CCN(c3ccccc3Cl)CC2)cc1OC
1.2	CCOC(=O)N1CCC2(CC1)C(C#N)=C(N)Oc1n[nH]c(C)c12
-0.6	COc1cccc(C(=O)NCCS(=O)(=O)NCc2ccccn2)c1
0.5	COc1ccc(C(=O)/C=C/Nc2ccc(S(=O)(=O)Nc3onc(C)c3C)cc2)cc1
-1.8	O=S(=O)(c1ccc(N2CCOCC2)c(Cl)c1)N1CCOCC1
0.0	O=S(=O)(c1ccccc1)c1nc(-c2ccco2)oc1NCc1ccco1

Continued:
| smiles | STK33 inh |
| --- | --- |
| O=C1OCCN1c1c(-c2ccccc2)c(-c2cccs2)nc2c(-c3ccccc3)cccc12 | -2.2 |
| CCOC(=O)c1c(C)[nH]c(C)c1S(=O)(=O)N(C)CC(=O)Nc1cc(C)ccc1OC | -2.7 |
| COc1ccc(OC)c(NC(=O)Nc2cc(C(=O)O)ccc2C)c1 | -0.6 |
| CC(C)OCCCn1c(SCC(=O)N2CCCC2=O)nc2ccccc2c1=O | 0.9 |
| CCOC(=O)c1ccc(NC(=O)c2ccc3c(c2)C(=O)N(Cc2cccnc2)C3=O)cc1 | 0.8 |
| NC(=O)NC(=O)C(OC(=O)CCNS(=O)(=O)c1ccccc1)c1ccccc1 (stereo not drawn) | -1.8 |
| COC(=O)C1C(=O)c2c(C)noc2CC1(C)C (stereo not drawn) | -0.4 |
| NC(=O)Nc1ccccc1C(=O)Nc1ccc2ccccc2c1 | -0.9 |
| CCOc1cc(C(=O)N2CCN(c3ccccc3)CC2)cc(OCC)c1OCC | -0.2 |
| Cc1ccc(C)c(S(=O)(=O)n2cnc3ccccc32)c1 | 1.9 |
| O=C(Cn1cnc2cc([N+](=O)[O-])ccc2c1=O)Nc1cccc2ccccc12 | -0.8 |
| Nc1nc(N2CCN(C/C=C/c3ccccc3)CC2)nc2ccccc12 | 0.6 |

An excerpt from above in order of the STK33 inh value, rising:
| smiles | STK33 inh |
| --- | --- |
| O=C(C[n+]1ccccc1)Nc1nc2ccccc2s1 | -2.9 |
| COc1ccc2cc(C(=O)N3CCN(Cc4ccc5c(c4)OCO5)CC3)[nH]c2c1 | -1.1 |
| NC(=O)Nc1ccccc1C(=O)Nc1ccc2ccccc2c1 | -0.9 |

Other structures:
| smiles | STK33 inh |
| --- | --- |
| COC(=O)C1=C(C)n2nnnc2NC1c1ccc(Cl)cc1 (stereo not drawn) | 0.0 |
| CCOC(=O)Cc1csc(NC(=O)C2CCCN(S(=O)(=O)c3cnc[nH]3)C2)n1 (stereo not drawn) | -1.5 |
| Cc1ccc(NC(=O)CCNS(=O)(=O)c2cc(Br)cnc2N)cc1Cl | 0.3 |
| Cc1ccccc1-c1nc(-c2ccccn2)no1 | 5.7 |
| COc1ccc(N(C(=O)c2cccnc2)S(=O)(=O)c2cc(OC)ccc2OC)cc1 | -0.5 |
| C(=N\Nc1ccc2nncn2n1)/c1ccccn1 | 0.5 |
| Clc1ccc(-n2nnnc2SCc2c(-c3ccccc3)nc3sccn23)cc1 | -1.8 |
| CCOC(=O)c1cc(=O)n2nc(-c3ccc(C)cc3)nc2s1 | -0.2 |
| O=C(CO/N=C/c1ccc(OC(F)F)cc1)NCc1cccs1 | -0.6 |
| CN(C)S(=O)(=O)c1ccc(Cl)c(C(=O)Nc2cccc([N+](=O)[O-])c2)c1 | 0.6 |
| CC(=C\c1ccco1)/C=C(\C#N)C(=O)NCCc1c[nH]c2ccccc12 | -0.7 |
| COc1ccc(C(C)=O)cc1CC(=O)NCCCn1ccnc1 | 0.3 |
| COc1ccc(/C=C\C(=O)c2c(O)ccc3c(C)cc(=O)oc23)cc1OC | -0.4 |
| Cn1c(=O)n(C/C=C/c2ccccc2)c(=O)c2c1nc1n2CCCN1c1ccc(F)cc1 | 0.6 |
| COc1ccc(NC(=S)Nc2ccc(S(=O)(=O)N3CCOCC3)cc2)c(OC)c1 | -1.3 |
| CCOC(=O)N1CCN(C(=O)c2cn(CC)c3ccc(S(=O)(=O)N4CCOCC4)cc3c2=O)CC1 | 0.0 |
| OC(CN1C2=NCCN2c2ccccc21)c1ccc2c(c1)OCO2 (stereo not drawn) | -1.0 |
| Nc1cc(N)nc(SCCOc2ccccc2F)n1 | -1.9 |
| CC(C)C(C(=O)NC1CCCC1)N(CC1CCCO1)C(=O)CNS(=O)(=O)c1ccc(F)cc1 (stereo not drawn) | -1.2 |
| Cc1cc(=O)[nH]c2c(C)cc(S(=O)(=O)N3CCOCC3)cc12 | 0.8 |
| C/C(=N\NC(=O)Cc1cccc2ccccc12)c1ccncc1 | -0.9 |
| Nc1cc(=O)[nH]c(=O)n1CCc1ccccc1 | -1.0 |
| CC(C)NC(=O)c1c2c(nc3ccccc13)CCCC2 | -0.8 |
| O=C(CN1C(=O)S/C(=C\c2ccccc2F)C1=O)NC1C=CS(=O)(=O)C1 (stereo not drawn) | 0.1 |
| COC(=O)c1cccnc1-n1c(=O)c2cccnc2n(Cc2cccc([N+](=O)[O-])c2)c1=O | 6.7 |
| Cc1cc(C)n(C(=O)c2ccc(S(=O)(=O)N3CCCC3)cc2)n1 | -0.8 |
| Cc1cccc(NC(=O)CN2CCc3cc4c(cc3C2)OCCCO4)c1 | 0.9 |
| COc1ccc(Nc2nc(N)nc(CSC(=S)N3CCC(C)CC3)n2)cc1 | 0.1 |
| CC(C)n1c(-c2ccncc2)n[nH]c1=S | -0.1 |
| COc1ccc2c(C)cc(SCC(=O)Nc3cc(C(N)=O)cc(C(N)=O)c3)nc2c1 | -1.0 |
| Cc1cc(C)n(-c2nnc3n2N=C(c2ccccc2)CS3)n1 | -1.4 |
| O=C(c1cn(-c2ccccc2)nc1-c1cccnc1)N1CCCCC1 | -0.4 |
| CCOC(=O)N1CCC(NC(=O)c2cc3c(C)nc4ccccc4c3o2)CC1 | -1.0 |
| CCOC(=O)Cc1csc(NC(=O)NC2(C(F)(F)F)Oc3cc(Cl)c(Cl)cc3O2)n1 | 1.0 |
| COc1ccc(C2C3=C(CCCC3=O)NC3=C2C(=O)c2ccccc23)cc1 (stereo not drawn) | -2.0 |
| CCC(C)(C)n1nnnc1C(c1cc2cc(C)ccc2[nH]c1=O)N1CCCc2ccccc21 (stereo not drawn) | 0.5 |

Continuation:
Compound	STK33 inh
O=C(CCCN1C(=O)/C(=C/c2cccc(Br)c2)SC1=S)NCCCN1CCOCC1	0.2
O=C(Nc1ccc2nc3n(c(=O)c2c1)CCCCC3)c1ccccc1[N+](=O)[O-]	0.1
O=C(N/N=C/c1cn(-c2cccs2)nc1-c1ccccc1)c1ccccc1O	1.4
COc1ccccc1C(=O)OCC(=O)NC(=O)NCc1ccccc1	-0.2
COc1ccccc1C(=O)Nc1ccc(Oc2nnc(-c3ccc(C)cc3)c3ccccc23)cc1	-2.0
O=C(CN(C(=O)CCC(=O)Nc1ccccn1)c1ccc(F)cc1)NCCc1ccccc1	0.0
O=C(/C=C\c1ccccc1OC(=O)c1ccccc1F)c1cc2ccccc2o1	-0.5
Cc1ccc(C(=O)Cn2cnc3ccccc3c2=O)cc1	0.3
O=C(NCc1ccc2c(c1)OCO2)Nc1cccc(Cl)c1	-1.6
Cc1nc2ncnn2c(C)c1CCC(=O)N1CCN(c2ccccn2)CC1	0.8
CC1(C)CC(=O)C=C(Nc2ccc(S(N)(=O)=O)cc2)C1	-0.6
COc1cc(OC)c(OC)cc1CN1CCCC(C(=O)N2CCCCC2)C1 (stereo not drawn)	0.6
CC1CCN(CCCCOc2ccccc2[N+](=O)[O-])CC1	10.0
N#CC1(NC(=O)COC(=O)CCCN=C2NS(=O)(=O)c3ccccc32)CCCCC1	0.0
O=C(Cc1ccccc1)NCC(=O)N1CCN(c2ccccc2)CC1	-2.1
O=[N+]([O-])c1cccc(CN2CCCCCC2)c1	-0.4
O=C(O)CCCC(=O)NCCCCc1ccccc1	-0.2
O=C(COC(=O)c1n[nH]c(=O)c2ccccc12)NC1CCCCC1	0.4
Cn1ccnc1C1CCCCN1Cc1nc(-c2ccc3c(c2)OCO3)no1 (stereo not drawn)	0.7
Cc1nc(NC(=O)CC(C)C)sc1-c1csc(Nc2ccc(Cl)cc2)n1	0.1
Cc1ccc(N(C(=O)Cn2nnc(-c3ccc(F)cc3)n2)C(CC(C)C)C(=O)NCC2CCCO2)cc1 (stereo not drawn)	0.8
COc1ccc(CCNC(=O)c2cc3ccccn3n2)c(OC)c1OC	-1.9
O=C(c1cc(Cl)ccc1OCc1ccccc1)N1CCOCC1	-1.0
Cc1ccc2ccc(C3C(=O)c4ccccc4C3=O)nc2c1	-0.1
O=C(CSc1nc2ccccc2s1)N1CCN(C(=O)c2ccco2)CC1	-0.9
Cc1ccc(S(=O)(=O)Nc2nc(CN3CCOCC3)nc3sc(C)c(C)c23)cc1	-0.7
COc1ccc(/C=N/NC(=O)Cc2csc(Nc3cccc(C(F)(F)F)c3)n2)cc1C	0.9
CCc1nc(SCC(=O)c2cccs2)c2oc3ccccc3c2n1	-1.0
COc1ccc(N2CCN(C(c3cc(OC)ccc3OC)c3nnnn3CC3CCCO3)CC2)cc1 (stereo not drawn)	-0.2
CCc1nn(CC(=O)N2CCN(c3cc(C)ccc3C)CC2)c(=O)c2cc3occc3n12	-0.4
COc1cccc(NC(=O)N2CCCC2C(=O)NC2CCCC2)c1 (stereo not drawn)	-0.6
Cc1cccc(OCCNC(=O)CCc2ccccc2)c1	-0.7
COc1ccc(S(=O)(=O)n2nc(OC(=O)c3ccccc3Br)cc2N)cc1	0.7
Cc1ccccc1NC(=O)c1cn(-c2ccccc2)nc1-c1ccccc1	-4.0
S=c1[nH]c(-c2ccc(Br)cc2)cn1CCc1ccccc1	-1.8
Cc1ccc(C)c(C(=O)COC(=O)c2cccc(N3C(=O)c4c(C)nc5ccccc5c4C3=O)c2)c1	-0.5
Cc1cc(NC(=O)CSc2nncc(=O)n2N)no1	-1.0
Cc1ccc(OCC(=O)O/N=C(\N)c2ccccn2)cc1C	-1.2
Cc1cccc(N(CC(=O)NCc2ccccc2)C(=O)Cn2nnc(-c3ccc(C)o3)n2)c1	-1.6
O=C(N/N=C\c1cc2c(cc1Cl)OCO2)c1cccs1	-0.9
Cc1cccnc1NC(=O)Cn1c(=O)oc2ccccc21	0.7
CC1CCCCC1NC(=O)c1ccc(CNc2c(N3CCCC3)c(=O)c2=O)cc1 (stereo not drawn)	0.2
O=C(CCCn1nnc(-c2cccnc2)n1)c1ccc(F)cc1	-0.5
COc1cc(NC(=O)c2cccc(C)c2)c(OC)cc1NC(=O)CN1CCCCC1	-0.8

Screening results (PubChem)
